# Bioassay records deposited in PubChem BioAssay by National Center for Advancing Translational Sciences (NCATS).
# Rango dissoc inh – qHTS Assay for Inhibitors of RanGTP induced Rango (Ran-regulated importin-beta cargo) - Importin beta complex dissociation. Snurportin-1 (Homo sapiens) + GTP-binding nuclear protein Ran (Homo sapiens) + Importin …. Biochemical FRET Rango-importin beta, RanGTP-induced dissociation. actives 0.071% (n = 340,000). Potency, µM (doses to about 46.1 µM), without a hit: at the highest dose activity change, negative = inhibition; active means falling FRET ratio curve, often poorly fitted, with flat reads before Ran was added; inconclusive means other falling curves, or compound fluorescence or quenching; inactive means flat or rising ratio curve;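 further: potency means the concentration at half of the fitted maximal effect; % of control where 0% means no effect; nearly all actives have a fitted effect of over 45% in size; -100% = wells without RanGTP and RCC1; the record marks most hits as doubtful in a second field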
#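 Rango (0.1 uM)–importin beta (0.25 uM) complex; RanGTP-RCC1 trigger; 45 min RT; CFP/YFP FRET read.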
# miR-21 reporter – qHTS Assay for Modulators of miRNAs and/orActivators of miR-21. HeLa miR-21 FLuc reporter, luciferase, 48 h. Potency, µM (top dose mostly 38.3 µM), without a hit: at the top dose reporter change, positive = more light. 340,000 tested, under 10 active. AID 2288, 2010; active = well fitted rising curve with a large enough effect; inconclusive = small, poorly fitted or top-dose-only effect; inactive = no such curve, though single readings can be large or run the other way;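 further: % of control where 0% means no effect; miR-21 action dims this reporter so a rising signal means less miR-21 action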
#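 Luminescence from a firefly luciferase reporter carrying a miR-21 binding site downstream, stably expressed under a CMV promoter in HeLa cells that make miR-21 endogenously, reports miRNA modulation after 48 h compound exposure up to approximately 40uM final.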
# GLA inh pH 4.5 – qHTS Assay for Inhibitors of Human alpha-Galactosidase at pH 4.5; Alpha-galactosidase A (Homo sapiens), P06280; purified enzyme, 4-MU-alpha-Gal fluorescence, pH 4.5; activity change, negative = inhibition, % at 105 µM; 230,000 tested, under 10 active; AID 1467, 2008; inconclusive = small, poorly fitted or top-dose-only inhibition, or a rising curve; inactive = flat fitted curve, though single readings scatter; no compound was filed as active;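 further: 0% = full activity with enzyme and -100% = basal without enzyme; dose as in the result columns while the protocol names 77 µM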
# Rango complex inh – qHTS Assay for Inhibitors of Rango (Ran-regulated importin-beta cargo) - Importin beta complex formation | Importin subunit beta-1 (Homo sapiens), Q14974 | Rango CFP/YFP FRET sensor + importin beta, 45 min | Potency, µM (series often up to 92.2 µM), without a hit: top-dose inhibition of complex formation | actives 0.031% (n = 340,000); active = rising FRET ratio curve, often small or poorly fitted; inconclusive = mostly compound fluorescence or quenching in the first reads; inactive = flat curves in all reads;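 further: potency means the concentration at half of the fitted maximal effect; 0% = DMSO wells and 100% = buffer wells lacking importin beta; nearly all actives have a fitted effect of over 15% in size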
# Target sequence (Q14974 whole entry, looked up): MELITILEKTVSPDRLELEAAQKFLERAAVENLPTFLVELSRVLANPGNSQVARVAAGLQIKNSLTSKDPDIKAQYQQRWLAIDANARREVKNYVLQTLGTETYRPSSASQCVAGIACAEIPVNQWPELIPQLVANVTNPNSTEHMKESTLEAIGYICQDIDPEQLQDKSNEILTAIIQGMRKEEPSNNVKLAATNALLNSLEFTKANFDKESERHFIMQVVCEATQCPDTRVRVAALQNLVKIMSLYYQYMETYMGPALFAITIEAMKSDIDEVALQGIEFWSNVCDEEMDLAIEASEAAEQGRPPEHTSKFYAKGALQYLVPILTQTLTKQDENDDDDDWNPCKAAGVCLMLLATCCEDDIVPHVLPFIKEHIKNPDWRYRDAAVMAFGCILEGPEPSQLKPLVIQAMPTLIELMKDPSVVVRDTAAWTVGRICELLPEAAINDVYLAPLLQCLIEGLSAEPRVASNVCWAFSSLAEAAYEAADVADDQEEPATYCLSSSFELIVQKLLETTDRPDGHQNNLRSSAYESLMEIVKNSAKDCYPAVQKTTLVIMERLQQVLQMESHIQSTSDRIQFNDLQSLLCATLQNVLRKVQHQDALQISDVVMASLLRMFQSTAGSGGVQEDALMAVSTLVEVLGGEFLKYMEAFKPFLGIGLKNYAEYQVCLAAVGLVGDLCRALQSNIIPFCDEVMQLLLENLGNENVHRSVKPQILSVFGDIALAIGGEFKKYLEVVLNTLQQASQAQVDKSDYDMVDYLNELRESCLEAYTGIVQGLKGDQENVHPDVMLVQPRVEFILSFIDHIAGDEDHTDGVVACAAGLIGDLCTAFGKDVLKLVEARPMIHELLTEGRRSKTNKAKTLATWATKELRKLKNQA
#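 FRET biosensor (snurportin 1 IBB flanked by EYFP and cerulean), 50 nM, with compound 5 min, then 0.125 microM importin beta in PBS, 1 mM DTT, 0.02% Tween-20, 0.1% BSA. CFP/YFP ratio read after 45 min at room temperature; pre-read flags interference.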
# The depositor's hits bear a star; ? = inconclusive; / = no result given.
[1] O=C(O)c1cccc2c1C(=O)c1ccccc1-2
[2] COc1ccccc1NC(=O)NCCc1ccccc1
[3] O=C(CSc1nc(-c2ccc(F)cc2)cs1)NCC1CCCO1 (centres undefined)
[4] COC(=O)Cc1ccc(N(Cc2ccccc2F)S(=O)(=O)c2ccc(Cl)cc2)cc1
[5] CC(NC(=O)C1CC=CCC1C(=O)O)C1CC2CCC1C2 (centres undefined)
[6] Cc1ccc(CNC(=O)CCCOc2cc(=O)n(C)c3ccccc23)o1
[7] Cc1nc(-c2ccccc2)nc2[nH]ccc(=O)c12
[8] CCN(CC)c1c([N+](=O)[O-])c(=O)n(C)c2ccccc12

assay / entry | 1 | 2 | 3 | 4 | 5 | 6 | 7 | 8
Rango dissoc inh | -3% | -3% | -3% | 13% | 2% | 1% | -7% | 1%
miR-21 reporter | 3% | -7% | / | -5% | -5% | -32% | -45% | 2%
GLA inh pH 4.5 | 4 | / | / | -2 | -8 | 2 | 0 | 2
Rango complex inh | 2.3% | 0.6% | 2.7% | 0.3% | 3.9% | -2.8% | 3.1% | 1.2%

[9] CC(=O)c1ccc(-n2c(CCC(=O)O)ccc2-c2ccc(Br)cc2)cc1
[10] COc1ccc(C)cc1NC(=O)C1CC1c1ccccc1 (centres undefined)
[11] Cc1ccnc(NC(=O)CCC(=O)N(CC(=O)NCc2ccc(F)cc2)Cc2ccco2)c1
[12] CCOc1ccccc1-n1c(SCC(=O)N2CCOCC2)nc2ccccc2c1=O
[13] Nc1ccccc1C(=O)N/N=C1\C2CN3CCN(C2)CC1(c1ccccc1)C3
[14] CCOc1ccc(C(=O)NCC(=O)Nc2ncccc2C)cc1OCC
[15] Cc1ccc(SCCN2C(=O)NC(C)(C)C2=O)cc1
[16] C/C(=N\Nc1cccc(C(F)(F)F)c1)c1ccc(O)cc1

assay / entry | 9 | 10 | 11 | 12 | 13 | 14 | 15 | 16
Rango dissoc inh | -10% | 6% | 15% | 4% | -6% | -6% | 5% | 15%
miR-21 reporter | 1% | / | 0% | 1% | -64% | / | -10% | -25%
GLA inh pH 4.5 | / | / | / | / | -9 | / | 7 | -5
Rango complex inh | -2.1% | 0.9% | -0.2% | 0.5% | 1.7% | 0.1% | 0.5% | -1.5%

# Some entries already given, limited to Rango complex inh, Rango dissoc inh and GLA inh pH 4.5:
nr	SMILES	Rango complex inh	Rango dissoc inh	GLA inh pH 4.5
11	Cc1ccnc(NC(=O)CCC(=O)N(CC(=O)NCc2ccc(F)cc2)Cc2ccco2)c1	-0.2%	15%	/
12	CCOc1ccccc1-n1c(SCC(=O)N2CCOCC2)nc2ccccc2c1=O	0.5%	4%	/

# Later entries.
[17] COC(=O)NNC(=O)COc1ccc2ccccc2c1Br
[18] Cc1ccc2c(c1)N(C(=O)CCC(=O)NCCCN(C)Cc1ccccc1)CCO2
[19] CC(C)(C)NS(=O)(=O)c1ccc(NC(=S)NC(=O)C2CC2)cc1
[20] CCOC(=O)c1ccccc1NC(=O)c1ccc(F)cc1
[21] CC1CCN(S(=O)(=O)c2cccc(-c3nnc(-c4cccnc4)o3)c2)CC1
[22] CCn1c(=NC(=O)CS(=O)(=O)c2ccccc2)sc2cccc(OC)c21
[23] Cn1c(NCc2c[nH]c3ccccc23)nc2ccccc21
[24] COc1cccc2cc(-c3nnc(-c4ccccc4)o3)c(=O)oc12

assay / entry | 17 | 18 | 19 | 20 | 21 | 22 | 23 | 24
Rango dissoc inh | -10% | -10% | 21% | -14% | 7% | 0% | 14% | -3%
miR-21 reporter | -39% | 2% | 8% | -4% | -2% | / | -55% | -57%
GLA inh pH 4.5 | -3 | / | / | / | 3 | / | -26 | 7
Rango complex inh | -1.4% | 0.2% | 0.0% | 1.5% | -0.1% | -3.3% | 2.7% | -0.1%

[25] CCCCCCSc1ccc([C@@H]2[C@@H]3C(=O)N(CC)C(=O)[C@@H]3[C@]3(C(=O)OC)CCCCN23)cc1OC
[26] Cc1ccc(NC(=O)COC(=O)c2ccc(-n3nc(C)cc3C)cc2)c(F)c1
[27] COc1ccc(NC(=S)NNC(=O)c2ccccc2OC(F)F)cc1
[28] COc1cccc(CNC(C)C(=O)Nc2ccc3c(c2)OCCO3)c1 (centres undefined)
[29] COc1ccc(-c2nn(-c3ccccc3)cc2C(=O)NCC2CCCO2)cc1 (centres undefined)
[30] CCn1c(SCC(=O)N2CCCC2)nc2c1c(=O)n(C)c(=O)n2C
[31] O=S(=O)(N/N=C/c1cccnc1)c1ccc(Cl)c(Cl)c1
[32] CCOC(=O)c1c(SCC(=O)Nc2nc(C)cs2)nc(=O)[nH]c1C

assay / entry | 25 | 26 | 27 | 28 | 29 | 30 | 31 | 32
Rango dissoc inh | -12% | -8% | 1% | -5% | 1% | -5% | -6% | 5%
miR-21 reporter | / | / | 11% | -16% | 2% | -10% | -11% | -1%
GLA inh pH 4.5 | / | / | 5 | -7 | / | -2 | 0 | /
Rango complex inh | -1.3% | -0.5% | -0.3% | -1.4% | -1.8% | 0.8% | 1.0% | 0.5%

[33] Cc1c(C(=O)N2CCC(C)CC2)oc2ccc3c(c12)C(O)CC1(CCCCC1)O3 (centres undefined)
[34] Cc1ccnc(NC(=O)c2ccccc2NC(=O)c2ccccc2)c1
[35] CCCCOc1ccc(C(=O)NCC(=O)NCCOc2ccccc2OC)cc1
[36] CCN(CC)CCN(C(=O)C1=COCCO1)c1nc2ccc(C)cc2s1
[37] CCOC(=O)c1c(-c2ccc(OC)cc2)csc1NC(=O)CNCc1ccco1
[38] O=C(Cn1cncn1)NCc1cccc(OC(F)F)c1
[39] S=c1[nH]nc(-c2ccc(Cl)cc2Cl)n1Cc1ccccc1
[40] Cc1cccc2sc(NC(=O)CSc3cn[nH]n3)nc12

assay / entry | 33 | 34 | 35 | 36 | 37 | 38 | 39 | 40
Rango dissoc inh | -1% | -1% | 3% | 4% | -4% | 0% | -3% | 16%
miR-21 reporter | 12% | -2% | / | -19% | 11% | 4% | 0% | -7%
GLA inh pH 4.5 | / | / | / | / | -4 | -15 | 4 | /
Rango complex inh | 1.0% | -1.5% | 0.3% | 2.3% | -3.0% | -3.7% | 0.8% | -2.6%

[41] O=C1C=CC(=O)N1c1ccc(Nc2ccccc2)cc1
[42] COc1ccc(C(=O)N2CCc3cc(OC)c(OC)cc3C2c2ccc(OC)c(OC)c2)cc1OC (centres undefined)
[43] c1ccc2c(c1)CCN(c1nc3cc4c(cc3s1)OCCO4)C2
[44] CCN(Cc1ccncc1)C(=O)c1cc(COc2ccc(OC)cc2Cl)on1
[45] COc1ccc(-n2c(SCC(=O)Nc3ccc4c(c3)OCO4)nc3c(c2=O)SCC3)cc1
[46] NC(=O)C1CCN(C(=O)CCSc2ccc(Cl)cc2)CC1
[47] CC1(C)CC(c2nc(-c3ccc(Cl)cc3)cs2)CCS1 (centres undefined)
[48] CSCC(C)N1CCC(n2nccc2NC(=O)CCCc2ccccc2)CC1 (centres undefined)

assay / entry | 41 | 42 | 43 | 44 | 45 | 46 | 47 | 48
Rango dissoc inh | 11% | 4% | -1% | -8% | 3% | -12% | 2% | -21%
miR-21 reporter | / | -12% | 12% | -42% | -9% | -27% | -13% | 0%
GLA inh pH 4.5 | / | / | 3 | / | -3 | 8 | 8 | /
Rango complex inh | 3.5% | 0.4% | -3.2% | 0.4% | -3.8% | 2.0% | 0.9% | ?

[49] O=C(CSc1nc2ccc(Cl)cc2[nH]1)NCCc1ccc(Cl)cc1
[50] CCN(CC)C(=O)C1CC(=O)OC12CCCCC2 (centres undefined)
[51] COc1cc2c(cc1OC)C(c1ccccc1N)=NCC2
[52] O=C1NNC(=O)C1c1ccccc1
[53] Cc1ccc(C)c(N2CCN(C(=O)CCS(=O)(=O)c3ccc4c(c3)NC(=O)CO4)CC2)c1
[54] Cc1cc(-c2ccccc2)nc2oc(C(=O)NN)c(N)c12
[55] O=C(CCCc1ccccc1)N=C1SC2CS(=O)(=O)CC2N1c1ccccc1 (centres undefined)
[56] CCOC(=O)C(NC(=O)c1ccc(Cl)cc1Cl)(Nc1ccc(C)cc1)C(F)(F)F (centres undefined)

assay / entry | 49 | 50 | 51 | 52 | 53 | 54 | 55 | 56
Rango dissoc inh | -11% | 1% | 0% | 0% | -2% | ? | -31% | -4%
miR-21 reporter | 1% | -1% | 0% | 1% | ? | 6% | 0% | -6%
GLA inh pH 4.5 | 4 | -4 | 4 | / | / | -21 | / | -2
Rango complex inh | -0.5% | 5.3% | 2.8% | 0.1% | -1.1% | ? | 7.5% | 5.1%

# Ordered by value in Rango dissoc inh (rising): six of the compounds above
nr	canonical_smiles	Rango dissoc inh
55	O=C(CCCc1ccccc1)N=C1SC2CS(=O)(=O)CC2N1c1ccccc1 (centres undefined)	-31%
49	O=C(CSc1nc2ccc(Cl)cc2[nH]1)NCCc1ccc(Cl)cc1	-11%
56	CCOC(=O)C(NC(=O)c1ccc(Cl)cc1Cl)(Nc1ccc(C)cc1)C(F)(F)F (centres undefined)	-4%
53	Cc1ccc(C)c(N2CCN(C(=O)CCS(=O)(=O)c3ccc4c(c3)NC(=O)CO4)CC2)c1	-2%
51	COc1cc2c(cc1OC)C(c1ccccc1N)=NCC2	0%
50	CCN(CC)C(=O)C1CC(=O)OC12CCCCC2 (centres undefined)	1%

# Continued:
[57] CC1=C(C(=O)OC(C)C)C(c2cccs2)n2ncnc2N1 (centres undefined)
[58] COc1ccc(C(=O)N/C(=C\c2cn(C)c3ccccc23)C(=O)N2CCN(C)CC2)cc1
[59] CC(=O)Oc1ccc2ccccc2c1C(NC(=O)Cc1ccccc1)c1ccccc1Cl (centres undefined)
[60] COc1cccc(CNC(=O)CCCc2nnc3n(C)c(=O)c4sccc4n23)c1
[61] CSc1ncccc1C(=O)OCC(=O)N1CCc2ccccc21
[62] C=CCOC(=O)C1=C[C@H](c2ccc(C(F)(F)F)cc2)[C@@H](CCCO)[C@H](OCC)O1
[63] COC1=C(NCc2ccc3c(c2)OCO3)C(=O)C(OC)=C(NCc2ccc3c(c2)OCO3)C1=O
[64] O=C(c1ccc(Cl)c(S(=O)(=O)N2CCCC2)c1)N1CCN(Cc2ccccc2)CC1

assay / entry | 57 | 58 | 59 | 60 | 61 | 62 | 63 | 64
Rango dissoc inh | ? | -5% | 9% | 21% | 42% | -1% | 5% | -11%
miR-21 reporter | -5% | -5% | 17% | 2% | / | -1% | / | /
GLA inh pH 4.5 | 6 | / | -13 | / | / | -16 | / | /
Rango complex inh | -2.4% | -5.3% | 1.9% | 3.7% | 5.4% | -0.2% | -0.8% | 0.4%

[65] COC(=O)c1ccc(/C=N/Nc2nc(-c3ccc(C)cc3)cs2)cc1
[66] O=C1N=c2ccccc2=C1c1sc(NS(=O)(=O)c2ccccc2)nc1O
[67] O=c1cc([O-])[n+]2c3n1CCCN3CCC2
[68] Clc1cc(Cl)c(OCCCCn2cncn2)c(Cl)c1
[69] O=C1CC(c2ccc(F)cc2)Cc2nc(NCc3ccco3)ncc21 (centres undefined)
[70] O=C(Cn1nnc2ccccc2c1=O)NCc1ccco1
[71] CC1Cc2ccccc2N1C(=S)NC(=O)c1ccco1 (centres undefined)

assay / entry | 65 | 66 | 67 | 68 | 69 | 70 | 71
Rango dissoc inh | -5% | -3% | -17% | 23% | -24% | 17% | -25%
miR-21 reporter | -12% | -1% | -4% | -2% | -1% | -5% | -5%
GLA inh pH 4.5 | -11 | -7 | -13 | / | 5 | -3 | 6
Rango complex inh | 2.6% | -0.1% | 5.4% | 3.2% | -0.2% | ? | -2.8%

# Whole records from above. Screens in order: Rango dissoc inh	miR-21 reporter	GLA inh pH 4.5	Rango complex inh
# O=C(Cn1nnc2ccccc2c1=O)NCc1ccco1 reads 17%	-5%	-3	?
# Clc1cc(Cl)c(OCCCCn2cncn2)c(Cl)c1 reads 23%	-2%	/	3.2%
# O=C1N=c2ccccc2=C1c1sc(NS(=O)(=O)c2ccccc2)nc1O reads -3%	-1%	-7	-0.1%
# O=c1cc([O-])[n+]2c3n1CCCN3CCC2 reads -17%	-4%	-13	5.4%
# COC(=O)c1ccc(/C=N/Nc2nc(-c3ccc(C)cc3)cs2)cc1 reads -5%	-12%	-11	2.6%

# This is a subset. The share of hits here may be higher or lower than overall.
